Mtb hypoxia rep = reduces hypoxia-regulated biosensor signal in M. tuberculosis | M. tuberculosis hypoxia-regulated fluorescent reporter, fluorescence | fluorescence inhibition, % (test concentration not listed) | 0.1% of 300,000 active;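 active = 35 to 45% if threefold the growth effect, above 45% if 1.5-fold the growth effect; inactive = the rest, general growth blockers included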;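 also: wells of about 50 µL received 100 nL stock; 0% = vehicle wells and 100% = reference inhibitor wells; whole bacteria with a GFP reporter of the hypoxia response; strong numbers were not always called active; many hits fall short of the cut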
PrP UTR inh = suppresses PrP 5' UTR mRNA reporter expression; inhibition, % (test concentration not listed); AID 488862; cell-based PrP 5' UTR mRNA reporter, plate reader; 0.35% of 340,000 active;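 active = every replicate at 50% or more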;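 also: 0 = median of the neutral control wells; tested in H4 reporter cells; numbers are from one replicate; inactives centre near -14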
RN4220 kill = kills Staphylococcus aureus RN4220; 0.33% of 330,000 active; inhibition, % (concentration not given with the values); AID 1259311; S. aureus RN4220 growth, OD600, 16 h;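 active = z-score of -3 or lower and OD600 up to 0.18 on both plates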;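 also: plate controls were untreated cells for no effect and reference antibiotic for full effect; stock transfer was 100 nL into about 80 µL; one replicate is shown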
BJeLR viability = kills HRASV12-expressing BJeLR cells | 0.17% of 300,000 active | inhibition, % (no concentration beside the values) | AID 1554 | BJeLR (HRASV12) viability, CellTiter-Glo ATP luminescence, 48 h; reference of the scale not given here;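 active = replicate mean above 50%; inconclusive = above 50% but judged a plate artefact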;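 also: 50 nL library stock added to about 25 µL; numbers are from one replicate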
Bead autofluor = flagged as autofluorescent in microsphere protease counterscreen | compound autofluorescence counterscreen, microsphere flow cytometry; hits give high values | fluorescence intensity (no concentration beside the values) | 3.1% of 360,000 active | AID 624483;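 active = at least 3 SD above the mean of all compounds, about 16000 in these data; inconclusive = too few beads counted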;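 also: 100 nL of 1 mM stock went into each well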
Sa ugtP lethal = growth inhibition of S. aureus ugtP deletion strain | S. aureus RN4220 ugtP deletion, OD600 growth, 16 h; some inactives read as strong as hits | growth inhibition, % (test concentration not listed) | 0.54% of 330,000 active;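 active = z-score under -3 and OD600 up to 0.15 on both plates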;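 also: plate controls were untreated wells for no effect and antibiotic for full effect; wells of about 80 µL received 100 nL stock; the first replicate is given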
Mtb hypoxia rep growth = further read-out of Mtb hypoxia rep, marked with its call; growth inhibition, %; measured here: M. tuberculosis growth (absorbance);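 0% = vehicle and 100% = reference antibiotic; read after six days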
Numbers without * were called inactive; ? = inconclusive; . = not tested or not shown.

Each structure is followed by: Mtb hypoxia rep	Mtb hypoxia rep growth	PrP UTR inh	RN4220 kill	BJeLR viability	Bead autofluor	Sa ugtP lethal
COc1ccc(CN(C(=O)c2cc3ccccc3oc2=O)C2CCS(=O)(=O)C2)cc1 (stereo not drawn)
→ 2	8	-9	5.6	-6	6857	9
O=C(CN(c1ccc(Cl)c(Cl)c1)S(=O)(=O)c1ccccc1)N1CCc2ccccc2C1
→ .	.	-9	4.4	-14	2635	8
CCCn1c(N)c(C(=O)COC(=O)CCNS(=O)(=O)c2ccccc2F)c(=O)[nH]c1=O
→ -9	-10	-4	0.3	-2	4852	-3
CC1CCC2(CC1)NC(=O)N(CC(=O)Nc1cccc(C#N)c1)C2=O (stereo not drawn)
→ 2	7	-15	-0.7	.	3508	3
O=C(NN=Cc1c(F)cccc1Cl)C1CC1
→ 9	-2	.	5.5	.	.	2
Nc1nnc(C(F)(F)F)s1
→ -4	5	-7	2.4	4	4063	5
COCCN(C(=O)CCC(=O)Nc1cc(C)on1)C(C(=O)NC(C)(C)C)c1ccc(OC)cc1 (stereo not drawn)
→ 2	7	-3	1.1	2	5472	12
Cc1cccc(NC(=O)CN(C)C(=O)C2CC2)c1C
→ -6	-12	-2	2.8	.	6514	3
CN(Cc1ccccc1)c1nc(N)nc(Cl)c1C=O
→ -3	4	-8	1.8	4	3985	-8
CC(C)c1ccccc1NS(=O)(=O)N(C)C
→ 13	5	-16	5.6	-6	4490	7
Cc1cccc(NC(=O)c2sc3nc(-c4ccccc4)cn3c2C)n1
→ 9	3	-27	12	8	12530	-5
CC(=O)Nc1ccc(S(=O)(=O)N(C)CC(=O)OC(C)C(=O)NC2CCCCC2)cc1 (stereo not drawn)
→ -5	2	3	1.9	-1	?	-1
C/C(=N/NC(=O)c1ccc2c(c1)OCCO2)c1ccc([N+](=O)[O-])cc1
→ .	.	-38	.	9	3056	.
COc1cccc(CNc2nc(-c3cccnc3)nc3ccccc23)c1
→ 9	0	-20	-13	-29	4026	-4
CCCCn1c(SCC(=O)NCc2ccc(OC)c(C(=O)O)c2)nc2cc(S(N)(=O)=O)ccc21
→ 17	0	-10	4.7	-10	3978	3
O=C(Nc1cccc(-c2nc3ncccc3o2)c1)c1ccccc1
→ 4	-2	-6	11	3	4501	21
CCCCNC(=S)NCc1ccc2[nH]c3c(c2c1)CCCC3
→ 1	6	-28	-9.4	-6	5402	-14
O=C(COC(=O)c1cc(C(F)(F)F)cc(C(F)(F)F)c1)NCc1ccc(Cl)cc1
→ -4	0	-15	-4.0	-7	9973	22
CCN(C(=O)COC(=O)CCCc1c[nH]c2ccccc12)c1c(N)n(Cc2ccccc2)c(=O)[nH]c1=O
→ -2	12	-4	-3.9	.	3561	-3
CN(CCOc1ccc(Cl)cc1)C(=O)c1cc(S(=O)(=O)N2CCOCC2)ccc1N1CCCC1
→ 10	-2	-10	2.0	.	2800	2
CC(C)CCNC(=O)c1cc(-c2ccncc2)nc2ccc(S(=O)(=O)N3CCOCC3)cc12
→ .	.	-5	.	-3	10012	.
CCCS(=O)(=O)N1CCN(C(=O)COc2ccc(OC)cc2)CC1
→ -6	-8	-17	-1.5	-2	4256	-3
COCC(C)n1c(SCC(=O)NC(=O)NC2CCCC2)nc2ccccc2c1=O (stereo not drawn)
→ 2	2	-15	6.6	.	3939	6
CN(CC(=O)N1CCN(C2CCCCC2)CC1)S(=O)(=O)c1cccc2nsnc12
→ 2	-6	-20	2.9	-11	?	8
CCOc1ccc2[nH]c3c(N4CCN(C(=O)c5ccco5)CC4)ncnc3c2c1
→ -3	23	.	-2.7	-7	.	-5
Cc1ccc(C(=O)N(CC(=O)NC2CCCCC2)c2ccccc2C)s1
→ 6	8	-17	5.3	-2	8342	12
Cc1ccc(OP(=O)(NCc2ccccc2)Oc2ccc(C)cc2)cc1
→ 7	2	-15	-5.4	5	9756	-9
CCc1cc(C(=O)O)c(NC(=O)/C=C/c2ccc(OC)cc2)s1
→ -5	3	-36	7.3	-13	5267	21
CC(=O)N1CCCc2cc(S(=O)(=O)NC(C(=O)NC3CCCCC3)C(C)C)ccc21 (stereo not drawn)
→ 18	9	-22	5.5	11	2021	17
O=C(O)Cc1ccc(NC(=O)c2ccc3c(c2)C(=O)N(Cc2ccco2)C3=O)cc1
→ 5	-14	-7	-1.3	-3	4482	5

Continued; it opens with the three that closed the last part.
Each structure is followed by: Mtb hypoxia rep	Mtb hypoxia rep growth	PrP UTR inh	RN4220 kill	BJeLR viability	Bead autofluor	Sa ugtP lethal
CCc1cc(C(=O)O)c(NC(=O)/C=C/c2ccc(OC)cc2)s1
→ -5	3	-36	7.3	-13	5267	21
CC(=O)N1CCCc2cc(S(=O)(=O)NC(C(=O)NC3CCCCC3)C(C)C)ccc21 (stereo not drawn)
→ 18	9	-22	5.5	11	2021	17
O=C(O)Cc1ccc(NC(=O)c2ccc3c(c2)C(=O)N(Cc2ccco2)C3=O)cc1
→ 5	-14	-7	-1.3	-3	4482	5
Cc1cccc(OCC(=O)NCC(=O)NN=Cc2ccc(N(C)C)cc2)c1
→ 7	18	.	1.4	.	.	0
CCOC(=O)C1=C2c3cc(OC)c(OC)cc3CC(C)(C)N2C(=O)C1=O
→ 7	9	-3	8.6	-1	10567	2
Cc1cccc(NC(=O)Cn2nc(-c3ccco3)ccc2=O)c1C
→ 12	2	-11	2.8	-4	3102	0
C=CCOc1ccc(CN(C)C(=O)C2CCCO2)cc1 (stereo not drawn)
→ 3	-8	-7	4.8	-4	2850	2
CN1CCS/C1=C/C=C1\SC(=S)N(CC(=O)O)C1=O
→ 58*	4.6*	-19	1.1	-8	3062	7
Cc1ccc(S(=O)(=O)N2CCCCC2)cc1C(=O)NCc1ccncc1
→ -3	-3	-8	2.4	-9	6060	-3
CCOc1cc(C(=O)N/N=C(\C)Cc2ccc(OC)cc2)cc(OCC)c1OCC
→ .	.	-10	.	-21	2616	.
CC(=O)c1c(C)[nH]c(C(=O)OCC(=O)NCCc2ccc(Cl)cc2)c1C
→ .	.	-17	-0.7	4	2733	-4
CCNC(=O)/C(C#N)=C/c1c(N2CCN(C)CC2)nc2c(C)cccn2c1=O
→ 14	11	-8	0.9	-1	4011	5
COc1cc(/C=C2\SC(=S)N(CC(=O)Nc3cccnc3)C2=O)cc(OC)c1OC
→ -1	8	1	2.1	0	2291	-5
Cc1c(NC(=O)COC(=O)C(c2ccc(Cl)cc2)C(C)C)c(=O)n(-c2ccccc2)n1C (stereo not drawn)
→ 8	10	-8	-1.2	1	4566	9
O=C(NC(=S)NCc1cccnc1)c1ccccc1F
→ 0	16	-10	-0.1	1	5179	4
C/C=C1\CN2[C@H]3C[C@@]45c6ccccc6N(C)[C@H]4[C@@H]2CC1C3[C@H]5O (stereo partly drawn)
→ .	.	-26	1.6	-1	5988	3
Nc1ccc(S(=O)(=O)NNC(=O)C(=O)NNc2ccccn2)cc1
→ .	.	-20	.	-1	2922	.
C#CCOCCOCCOCCNc1nc(N2CCN(C(=O)Cn3cc(CC(C)O)nn3)CC2)nc(N2CCN(C(=O)C(C)n3cc(CCCN=C(N)N)nn3)CC2)n1 (stereo not drawn)
→ 22	9	.	7.2	.	.	8
CC(NC(=O)C1CCC(C(C)(C)C)CC1)C(c1ccccc1)N1CCOCC1 (stereo not drawn)
→ 9	9	-21	5.2	9	5290	7
CC(C)(C#N)c1cc(Cn2cncn2)cc(C(C)(C)C#N)c1
→ -3	1	.	4.9	-5	.	-3
CCOC(=O)c1c(-c2ccccc2)cn2c(C)cc(C)nc12
→ -2	2	-58	5.8	-1	4692	-3
O=C(OC(C(=O)NCc1ccccc1)c1ccccc1)c1ccco1 (stereo not drawn)
→ 6	3	-24	6.4	-5	6105	0
CS(=O)(=O)c1ccc(CNC(=O)[C@]2(C(F)(F)F)CC(CCc3ccccc3)CCCO2)cc1 (stereo partly drawn)
→ -3	3	.	-2.9	.	.	-1
C=CCn1c(SCC(=O)Nc2sccc2C(N)=O)nc2sc(C)c(C)c2c1=O
→ 8	13	-12	-3.6	-13	9379	-31
COc1ccc(OCc2n[nH]c(=S)n2-c2ccc(C)cc2)cc1
→ 16	10	-17	7.1	3	2240	15
CCOc1nc(SCCOc2ccc(Cl)cc2Cl)nc(N(C)C)n1
→ 12	9	-12	-0.1	6	9758	18
CCC(C)(C)n1nnnc1C(C(C)C)N1CCN(C(=O)c2ccco2)CC1 (stereo not drawn)
→ 6	3	-16	4.5	-1	5393	1
O=C(O)C1CCCCC1C(=O)NCCCN1CCCC1=O (stereo not drawn)
→ -10	2	-6	0.1	-5	4270	4
O=C1C2C(c3cccc(/C=C/c4ccccc4)c3)CC=CC2C(c2ccc(C(F)(F)F)cc2)N1Cc1ccccc1 (stereo not drawn)
→ .	.	-14	.	-2	3004	.
COC(=O)NN=C(C)c1ccc(OC(F)F)cc1
→ 17	12	.	7.9	.	.	7
Cc1nc2ccc(NC(=O)c3ccc([N+](=O)[O-])cc3)cc2s1
→ 4	3	-16	4.9	-9	2091	4
COc1ccc(NC2CCCN(C(=O)c3ccc(C)nc3)C2)cc1 (stereo not drawn)
→ 4	3	-10	0.5	-2	5020	2
COc1ccccc1C(=O)Nc1cc2cc(Br)ccc2oc1=O
→ .	.	-24	1.7	8	4771	1
CSc1nnc(C2CCN(CC(=O)Nc3ccccc3N3CCOCC3)CC2)n1C(C)C
→ -4	-6	4	-0.5	-11	3694	9
COCCN1CCN(C(=O)c2ccc3oc(CCCc4ccccc4)nc3c2)CC1
→ .	.	-16	.	-6	?	.
O=C(c1cccc(F)c1)N1CCN(C(=O)C2CC2)CC1
→ -1	9	-12	-3.2	-9	9503	-1
Cc1ccc(NC(=O)C2C3C=CC4(O3)C2C(=O)N(CCCN2CCCCC2)C4C(=O)NC2CCCCC2)cc1C (stereo not drawn)
→ 13	-2	-22	-0.4	-10	3027	3
C=CCOC(=O)C1=C[C@H](c2coc3ccccc3c2=O)C[C@H](OCCCCO)O1
→ .	.	-12	.	-4	4239	.
Cc1ccc(-c2nnc(COC(=O)c3ccco3)o2)cc1
→ 3	4	-8	-0.1	6	6168	2
O=c1[nH]c(=O)n(Cc2ccccc2Cl)c(O)c1/C=C1/C=CC=N1
→ -2	-1	-20	5.3	18	2647	6
COc1ccc(Cl)cc1-c1nc(-c2ccc(Br)o2)no1
→ -5	7	-33	3.7	-2	5233	-19
CC(=C/c1ccc(C(C)C)cc1)/C=N/NC(=O)c1ccncc1
→ .	.	-39	.	-3	2500	.
CCCCn1c(CN2CCN(C(=O)OCC)CC2)nc2c1c(=O)n(C)c(=O)n2C
→ -6	-11	-19	5.6	-4	14908	-8
Cc1ccc(S(=O)(=O)N2CCC(=O)N(C(COCc3ccc(Cl)cc3)Cc3ccccc3)CC2)cc1 (stereo not drawn)
→ 21	9	-7	0.5	-7	3737	10
O=C(CC1C(=O)NCCN1Cc1cccc(Oc2ccccc2)c1)NCCc1ccncc1 (stereo not drawn)
→ 7	3	-8	3.8	3	3887	5
O=C(c1ccco1)N1CCCN(Cc2nc(-c3cccs3)no2)CC1
→ 1	-6	-10	4.0	4	3880	-4
CCOc1ccc(Br)cc1/C=N/O
→ .	.	-9	.	9	9987	.
COc1ccccc1OC(C)C(=O)Nc1nc(-c2ccc(S(=O)(=O)N3CCOCC3)cc2)cs1 (stereo not drawn)
→ 4	-3	-16	20	3	23958*	-13
Cc1cnc(C(=O)OCC(=O)NC(=O)NC(C)C)cn1
→ -6	1	-3	12	0	?	5
CCC(CC)c1nnc(NC(=O)CCc2ccccc2OC)s1
→ -2	5	-29	1.1	3	4008	1
S=c1[nH]nc(-c2ccc3ccccc3n2)n1Cc1ccccc1
→ 0	-2	-10	1.8	5	2371	-19
Cc1ccc(Cn2cc(C=O)c3ccccc32)cc1
→ 1	0	.	1.2	0	3629	-1
Cc1cc(CCN2CCC(=O)NC2=S)ccc1OC(C)C
→ -20	-11	-7	3.7	-6	2799	-3
O=c1c2c(-c3ccccc3)csc2nc2n1CCC2
→ -4	4	-9	3.6	1	?	5
COc1cccc(C2NC(CCSC)(C(=O)O)C3C(=O)N(C(C)C)C(=O)C23)c1O (stereo not drawn)
→ .	.	-7	0.0	0	5670	6
CCOC(=O)c1ccc(CNC(=O)Cn2nnc(-c3cccc(C)c3)n2)o1
→ 4	5	-5	-5.1	-4	4340	-5

Screening data as filed in PubChem.
